Source: PubChem
VACV Venus inh – qHTS for Stage-Specific Inhibitors of Vaccinia Orthopoxvirus: Venus Reporter Primary qHTS; Vaccinia virus Venus reporter expression, fluorescence; Potency, µM (titrated, usually from 36.5 µM), for inactives: at the highest dose activity change, negative = inhibition, hits mostly inhibitors; actives 0.46% (n = 330,000); AID 720580, 2013; active means well fitted inhibition curve with a large enough effect; inconclusive means small, poorly fitted or top-dose-only effect; inactive means no such curve, though single readings can be large or run the other way; tested in A549 cells; note: nearly all actives have a fitted effect of over 30% in size; inactives centre near -10
Vaccinia mCherry – qHTS for Stage-Specific Inhibitors of Vaccinia Orthopoxvirus: mCherry Reporter Primary qHTS | Vaccinia virus mCherry reporter infection, fluorescence; about a quarter of the inactives have no number | Potency, µM (series often up to 36.5 µM), without a hit: at the top dose activity change, negative = inhibition, usual class: inhibitors | actives 0.63% (n = 310,000) | AID 720579, 2013; active = well fitted inhibition curve with a large enough effect; inconclusive = small, poorly fitted or top-dose-only effect; inactive = no such curve, though single readings can be large or run the other way; tested in A549 cells; note: nearly all actives have a fitted effect of over 35% in size; inactives centre near -10
An asterisk follows results filed as active; i = inactive; u = inconclusive; x = not tested or not shown; & = joins results of further samples; [ ] = another dose, or the depositor's remark. % is set by controls: 0 for no effect and ±100 for the full control effect; potency is the fitted concentration of half-maximal effect.

SMILES	VACV Venus inh	Vaccinia mCherry
O=C(NC1=NCCS1)c1ccc(Cl)c(S(=O)(=O)N2CCCCC2)c1	-16%	-29%
Cc1cccc(NP2(=O)NCCCN2)c1	8%	-16%
CN(C)C(CNC(=O)c1cc(Br)c(Br)s1)c1ccco1 (stereo not given)	-29%	u
C#Cc1cccc(C(=O)N2CCCC(CCC(=O)NCc3ccccc3F)C2)c1 (stereo not given)	-11%	-24%
CC(C)NS(=O)(=O)c1ccc(OCC(=O)N2CCN(Cc3ccccc3)CC2)cc1	-20%	u
CC1=C(C(=O)Nc2ccc(C)cn2)C(c2cnn(C)c2)C2=C(CCCC2=O)N1 (stereo not given)	17%	4%
CCOc1ccc(Nc2oc(-c3ccc(COc4ccc(OC)cc4)o3)nc2C#N)cc1	-24%	u
CC(C)C(C)N(Cc1ccc(C(=O)O)cc1)C(=O)c1ccc2ccccc2n1 (stereo not given)	-14%	i
CCC(SC1=Nc2ccccc2C2=NC(CC(C)C)C(=O)N12)C(=O)Nc1ccc2c(c1)OCO2 (stereo not given)	-25%	-28%
CC(C)c1c(C(=O)N(C)Cc2cccc3ncccc23)cnn1-c1nccc(-c2ccccc2F)n1	u	u
O=C(NC(=S)Nc1nc2c(s1)CCCC2)c1ccccc1	-15%	i
CCCC(=O)Nc1sc(Cc2ccccc2)c(C)c1C(N)=O	-19%	-11%
COc1ccc(Cl)cc1NC(=O)CN(C)C(=O)CN1C(=O)NC2(CCCC2)C1=O	-20%	i
CCOC(=O)c1ccc(S(=O)(=O)N2CCN(C(=O)c3cc4ccccc4o3)CC2)cc1	-5%	0%
CC(=O)Nc1ccc(S(=O)(=O)NCCCCNS(=O)(=O)c2ccc(NC(C)=O)cc2)cc1	-1%	i
CCOC(=O)N/N=C/c1ccccc1OCc1ccc(Cl)cc1	-21%	-13%
COc1ccc(N(CC(=O)NCc2ccc(F)cc2)C(=O)CCC(=O)Nc2nccs2)cc1	-17%	-8%
O=C(CN(C(=O)CCC(=O)Nc1nccs1)c1ccc(F)cc1)NCc1ccc(F)cc1	1%	-13%
O=c1[nH]c2ccc(S(=O)(=O)N3CCCCC3)cc2o1	0%	-16%
Cc1ccc(S(=O)(=O)/C=C/c2ccccc2)cc1	-6%	i

Compounds above that have a Cl atom (3):
SMILES	VACV Venus inh	Vaccinia mCherry
O=C(NC1=NCCS1)c1ccc(Cl)c(S(=O)(=O)N2CCCCC2)c1	-16%	-29%
COc1ccc(Cl)cc1NC(=O)CN(C)C(=O)CN1C(=O)NC2(CCCC2)C1=O	-20%	i
CCOC(=O)N/N=C/c1ccccc1OCc1ccc(Cl)cc1	-21%	-13%

New compounds follow.
SMILES	VACV Venus inh	Vaccinia mCherry
C[C@@H]1CN([C@H](C)CO)C(=O)CCCn2nncc2CO[C@H]1CN(C)C(=O)Oc1ccccc1	0%	-21%
COC(=O)c1sc(-c2ccccc2)cc1NC(=O)C1CC1	-25%	i
Cc1oc(-c2ccccc2Cl)nc1CSc1nncn2c1cc1occc12	-7%	-15%
COc1cccc(-c2csc(N3CCN(C(=S)Nc4cccc(Cl)c4)CC3)n2)c1	u	i
O=C1/C(=C/c2ccncc2)CCC/C1=C\c1ccncc1	11µM*	10µM*
CCOC(=O)[C@H]1[C@H]2COc3ccc(Br)cc3[C@H]2N2C(=O)CN(Cc3ccc(C)cc3)C(=O)[C@@]12C	-20%	i
CN1CC(O)C2=CC(=O)C(=O)C=C21 (stereo not given)	-10%	-2%
Cc1ccc(S(=O)(=O)Nc2c(C)cc([N+](=O)[O-])cc2C)cc1	-17%	-22%
Cc1c(C(=O)N2CCOCC2)sc(NC(=O)c2ccc3c(c2)OCO3)c1C#N	5%	5%
COc1ccc(CC(=O)NCc2nnc(SCC(=O)c3ccc(OC)cc3)n2C)cc1	-14%	-2%
COc1ccc(N2C(=O)NC(NS(=O)(=O)c3ccccc3)(C(F)(F)F)C2=O)cc1 (stereo not given)	-13%	i
O=C(CN1C(=O)c2ccc([N+](=O)[O-])cc2C1=O)NCc1ccc(C(=O)O)cc1	-14%	-10%
CN(C(=O)CN1CCC(NC(=O)c2ccccc2Br)CC1)C1CCCCC1	-1%	-20%
O=C(NC1CCCC1)c1ccc(CSc2nc3cccnc3n2Cc2ccc(F)cc2)cc1	0%	-13%
Cc1nc2cc(NC(=O)[C@@H]3C[C@@H](Sc4ccccn4)CN3Cc3cccc(Cl)c3)ccc2s1	2%	-8%
CCn1c(SCc2cccnc2)nnc1-c1c[nH]c2ccccc12	4%	5%
Cc1ccc(NC(=O)C2(C)CCN2C(=O)Cc2ccc(C(C)C)cc2)cc1 (stereo not given)	-10%	12%
COc1ccc(OC(=O)COc2cccc(C)c2)cc1	10%	-13%
CCCCNC(=O)C1(C)CCN1C(=O)c1ccc(F)cc1Cl (stereo not given)	-11%	0%
Cc1[nH]c2ccc(-c3n[nH]c(=S)n3Cc3ccccc3)cc2c1C	-15%	i
COC(=O)c1ccccc1NC(=O)NCc1ccco1	-10%	-15%
O=C(CSc1nnc(SCc2ccccc2)s1)N/N=C/C=C/c1ccccc1[N+](=O)[O-]	-8%	-15%
N/C(=N\OS(=O)(=O)c1ccc2ccccc2c1)c1ccccn1	-1%	3%
COc1cc2nc3n(c(=O)c2cc1OC)-c1cc2ccccc2cc1C(=O)NC3Cc1ccccc1 (stereo not given)	-17%	i
O=C1C=C(Nc2cccnc2)c2ccccc2C1=O	10µM*	u
CC1C(=O)N(Cc2ccc([N+](=O)[O-])cc2)c2ccccc2N1C(=O)C1CC1 (stereo not given)	-1%	i
CNC(C(=O)c1ccccc1)C(OC(C)=O)c1cccc([N+](=O)[O-])c1 (stereo not given)	-11%	-3%
COc1cc(NC(=O)CCn2nc(C)c(S(=O)(=O)N3CCCCC3)c2C)cc(OC)c1OC	-9%	i
C[C@@H]1CN([C@H](C)CO)C(=O)CCCn2nncc2CO[C@@H]1CN(C)C(=O)Cc1ccccc1	-12%	-10%
CC(=O)N1CCN(C(=O)C(Cc2c[nH]c3ccccc23)NC(=O)c2ccccc2Cl)CC1 (stereo not given)	3%	-8%
Cc1sc2ncn(CC(=O)NCCCC(=O)Nc3ccc(C(C)C)cc3)c(=O)c2c1C	-5%	-13%
O=C(Cc1ccccc1)Nc1ccc(NC(=O)c2ccco2)cc1	2%	-13%
CC(C)(C)C(=O)C(Oc1ccc(Cl)cc1)n1cncn1 (stereo not given)	-17%&-13%	-15%&-12%
CCOC(=O)COc1ccc2c(=O)c(-c3ccccc3OC)coc2c1	5%	i
O=C(NNC1CC(=O)N(c2ccc(F)cc2)C1=O)c1cccnc1 (stereo not given)	-12%	-13%
N#Cc1c(N)n(CCNC(=O)c2ccc(Cl)cc2)c2nc3ccccc3nc12	-20%	u
COc1ccc2c(c1)CCC1(C)CC(=O)C(Br)=C21 (stereo not given)	-27%	-21%
O=C(CSCc1cccc(Cl)c1)Nc1ccccc1-c1ccccc1	-19%	-3%
O=C(CN1CCN(c2ccccn2)CC1)Nc1cc(C(F)(F)F)ccc1Cl	-30%	x
c1ccc(OCCCn2ccnc2)cc1	-12%	i
Cn1c(=O)c2cc(NC(=O)CCc3cccnc3)ccc2n1Cc1cccc(C(F)(F)F)c1	-12%	4%
Cc1ccc(NC(=O)CSc2nnc(NC3CC3)s2)cc1S(=O)(=O)N1CCOCC1	-19%	-17%
COc1ccc(-n2cc(-c3ccccc3)c3c(N4CC(C)OC(C)C4)ncnc32)cc1 (stereo not given)	-9%	-8%
CCCCCCC(=O)NNC(=O)CC(=O)Nc1ccccc1C(=O)O	-19%	-8%
CC(C)(C)CN1CCC(Oc2cccc(C(=O)N3CCNC(=O)C3(C)C)c2)CC1	-11%	-24%
COc1cc(C=NOC(=O)Nc2ccccc2)cc(OC)c1OC	7%	-6%
O=C(CC1CCCCC1)N1CCCC(c2nc(-c3ccc(S(=O)(=O)N4CCCC4)cc3)no2)C1 (stereo not given)	-28%	-12%
Cc1ccc2oc(C(=O)Nc3ccc(S(=O)(=O)Nc4onc(C)c4C)cc3)cc(=O)c2c1	7%	-1%
Cc1ccc(-n2cc(-c3ccccc3)nc2S(=O)(=O)CC(=O)Nc2ccc(F)cc2)cc1	-12%	-28%
O=C1C=C(c2cccc(Cl)c2)C[C@@H](c2ccc(Cl)cc2)C1	-19%	u
COc1cc(Cn2c(C(=O)O)cc3sccc32)cc(OC)c1OC	-10%	-14%
O=C(NCc1ccccc1F)c1ccc(S(=O)(=O)NCc2ccco2)cc1	-15%	-7%
CCCCC[C@H](O)/C=C/[C@@H]1[C@@H](C/C=C\CCCC(=O)OC)[C@@H](O)C[C@H]1O	-20%	i
COC/C=C/C1=CC2=CC(=O)C(C)(OC(=O)c3cnc4ccccc4n3)C(=O)C2=CN1Cc1ccccc1 (stereo not given)	u	-19%
CC1CCN(c2nc3c(c(=O)[nH]c(=O)n3C)n2CC(C)CSc2nnnn2-c2ccccc2)CC1 (stereo not given)	-10%	i
COc1cccc(N2CC(NC(=O)c3ccco3)CC2=O)c1 (stereo not given)	-13%[7.34 µM]	-21%[7.34 µM]
Cc1nc2nc3c(c(=O)n2[nH]1)CCCC3	-6%	x
COc1cc(NS(=O)(=O)c2csc(C(N)=O)c2)cc(OC)c1	-17%	i
O=c1[nH]c(CN2CCN(c3ccc(F)cc3)CC2)nc2ccccc12	-22%	x
CCOC(=O)C(C#N)(Cc1ccc2ccccc2n1)Cc1ccc2ccccc2n1	-7%	-13%

In the list so far, these have a CF3 group:
SMILES	VACV Venus inh	Vaccinia mCherry
COc1ccc(N2C(=O)NC(NS(=O)(=O)c3ccccc3)(C(F)(F)F)C2=O)cc1 (stereo not given)	-13%	i
O=C(CN1CCN(c2ccccn2)CC1)Nc1cc(C(F)(F)F)ccc1Cl	-30%	x
Cn1c(=O)c2cc(NC(=O)CCc3cccnc3)ccc2n1Cc1cccc(C(F)(F)F)c1	-12%	4%

Next section.
SMILES	VACV Venus inh	Vaccinia mCherry
COC(=O)[C@H](Cc1ccccc1)N(Cc1ccccc1)S(=O)(=O)N(Cc1ccccc1)[C@@H](Cc1ccccc1)C(=O)OC	-11%	u
O=C(Nc1cc(NC(=O)c2ccccc2F)ccc1Cl)c1ccccc1	-21%	-13%
O=C(Nc1ccc(OC(=O)N2CCCCC2)cc1)N1CCOCC1	-4%	-21%
CC(C)C1CC(c2csc(N)n2)CCO1 (stereo not given)	-7%	x
FC(F)(F)c1cccc(-c2cc(C3CCNCC3)[nH]n2)c1	-12%	-21%
O=C(Nc1ccccc1Cl)C1CCN(S(=O)(=O)c2cccc3nonc23)CC1	-27%	i
C=C(C)C1Cc2c(C)nn(-c3cccc4ccccc34)c2C1 (stereo not given)	-19%	x
N#Cc1ccc(COC(=O)c2cnc3ccccc3n2)cc1	-5%	-11%
Cc1ccc(C)c(OCCOCCn2c(-c3ccc(Br)cc3)nc3ccccc3c2=O)c1C	-3%	-4%
COc1ccc(N(CC(=O)N2CCCCC2)S(=O)(=O)c2c(C)nn(C)c2C)cc1	-6%	i
Nc1nc(-c2ccccc2)nc2nonc12	6%	-11%
CCOC(=O)c1cccc(NC(=O)CSc2nnc(COc3ccccc3C)o2)c1	-21%	-8%
O=C(Nc1ccccc1)c1nc[nH]c1C(=O)NCCCCCCNC(=O)c1[nH]cnc1C(=O)Nc1ccccc1	u	u
COc1ccc(CN(C)CC(=O)Nc2ccc(Cl)cc2C(F)(F)F)c(OC)c1	-9%	-1%
COCCCn1c(C(=O)NC2CCCCC2)cc2c(=O)n3cccc(C)c3nc21	-21%	i
Cn1c(=O)oc2cc(S(=O)(=O)N3CCN(c4ccccn4)CC3)ccc21	-4%	i
Cc1c(NC(=O)C(C)OC(=O)c2cc3c4ccccc4n(C)c3s2)c(=O)n(-c2ccccc2)n1C (stereo not given)	-22%	-19%
COc1ccc(-n2c(-c3ccc(Cl)cc3Cl)n[nH]c2=S)c(OC)c1	-13%	i
Cc1cc2nccc(-c3ccco3)n2n1	-5%	-9%
CCOCc1cc(=O)[nH]c(SC)n1	-9%	i

A run of entries of the results above:
SMILES	VACV Venus inh	Vaccinia mCherry
O=C(NC1=NCCS1)c1ccc(Cl)c(S(=O)(=O)N2CCCCC2)c1	-16%	-29%
Cc1cccc(NP2(=O)NCCCN2)c1	8%	-16%

One compound at a time, from the list above. Order of screens: VACV Venus inh, Vaccinia mCherry
Results for FC(F)(F)c1cccc(-c2cc(C3CCNCC3)[nH]n2)c1 = -12%, -21%
Results for COc1ccc(N(CC(=O)N2CCCCC2)S(=O)(=O)c2c(C)nn(C)c2C)cc1 = -6%, i
Results for Cc1ccc(C)c(OCCOCCn2c(-c3ccc(Br)cc3)nc3ccccc3c2=O)c1C = -3%, -4%

The list continues.
SMILES	VACV Venus inh	Vaccinia mCherry
COc1ccc(OC)c(NC(=O)C2COc3ccccc3O2)c1 (stereo not given)	-24%	x
Cc1cc(C(=O)CCl)c(C)n1CCc1ccc(Cl)cc1	-16%	-12%
CC1=C(C(=O)Nc2ccc(C)cc2C)C(c2ccc(O)cc2)n2nnnc2N1 (stereo not given)	-3%	-6%
Cc1cc(C)c(S(=O)(=O)N(C)CC(=O)NC2CCCC2)c(C)c1	-7%	i
CCC(C)[C@H](N)c1cn([C@@H](Cc2cc3ccccc3[nH]2)C(=O)N2CCNCC2)nn1 (stereo not given in full)	-8%	i
O=C(CCn1nnc2ccccc21)OCC(=O)c1ccc(F)cc1	1%	-15%
COc1ccc(/C=C/c2c(-c3ccc(OC)cc3)sc3cc(OC)c(OC)cc23)cc1	0%	-5%
NC(=O)CN1C(=O)C(=O)N(Cc2ccc(Cl)cc2)C1=O	-9%	i
